# Assay outcomes from PubChem BioAssay.
# MITF inhib = MITF inhibition | 37,000 compounds, 0.28% hits | TRPM1 promoter luciferase, luminescence, 24 h | inhibition, % (test concentration not listed) | AID 2240;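 active means most replicates at 85% or more, or half of them and the mean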;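 further: human melanocyte line stably carrying TRPM1 promoter luciferase reporter; 0% = vehicle wells and 100% = a positive control; the first replicate is given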
# YB-1 expr inh = YB-1 expression inhibition. AID 434959. delta delta Cp (YB-1 minus CDIP) (test concentration not listed). U2OS, qRT-PCR YB-1 vs CDIP delta delta Cp, 16 h; stronger effect = higher value; zero = DMSO, each unit about twofold. 30,000 compounds, 0.37% hits;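 active means delta delta Cp rounded down to an integer at or above 3, about 3 SD of DMSO wells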;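 further: higher means less YB-1 transcript or more CDIP transcript relative to DMSO; stock transfer was 100 nL into about 100 µL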
# Shh pathway inh = blocks Sonic Hedgehog signaling | inhibition, % (test concentration not listed) | AID 2313 | 22,000 compounds, 2.1% hits | Shh-LIGHT2 Gli-luciferase reporter, 30 h;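 active means replicate mean of 65% or more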;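 further: pathway switched on by Shh-conditioned medium diluted 1 in 25 in low serum; 100 nL library stock added to about 40 µL; 0% = median of neutral wells and 100% = positive control level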
# PD-1 reverse act = reversal of PD-1 mediated T-cell inhibition; primary human CD4 T cells, PD-L1 beads, CellTiter-Glo 96 h; activation, % (test concentration not listed); 29,000 tested, under 10 active; AID 2316;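 active means replicate mean of 50% or more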;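 further: 0% = median vehicle wells and 100% = positive control; 100 nL library stock added to about 50 µL; numbers are from one replicate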
# Starred values were filed as active, the others as inactive; x = no result given. Some of the compounds tested (hit frequency here may not be typical).
SMILES,MITF inhib,YB-1 expr inh,Shh pathway inh,PD-1 reverse act
CNC[C@H]1Oc2ccc(NC(=O)C3CC3)cc2C(=O)N([C@@H](C)CO)C[C@@H]1C,-5.2,0.181,22.0,0.7
Cc1noc(C)c1NC(=O)N(C)C[C@@H]1Oc2c(NC(=O)c3ccc(-c4nccs4)cc3)cccc2C(=O)N([C@@H](C)CO)C[C@H]1C,-3.0,0.305,-13.7,2.7
COc1ccc(S(=O)(=O)Nc2ccc3c(c2)CC(=O)N([C@H](C)CO)C[C@@H](C)[C@@H](CN(C)C(=O)Nc2c(C)noc2C)O3)cc1,-9.6,0.00731,-37.3,2.5
C[C@@H]1CCCCO[C@H](CN(C)C(=O)CCCN(C)C)[C@@H](C)CN([C@H](C)CO)C(=O)c2cc(NC(=O)Nc3ccc(F)cc3)ccc2O1,10.7,0.12,x,-0.4
CCOC(=O)c1c(NC(=O)c2cccc(S(=O)(=O)N3CCCCCC3)c2)sc2c1CCC2,14.2,x,x,-2.7
C[C@H]1CN([C@@H](C)CO)C(=O)Cc2cc(NS(=O)(=O)c3cccs3)ccc2O[C@@H]1CN(C)S(=O)(=O)c1ccc(Cl)cc1,-4.1,0.352,-12.1,-0.6
C[C@@H]1CN([C@H](C)CO)C(=O)c2cccc(NS(=O)(=O)c3ccc(Cl)cc3)c2O[C@@H]1CN(C)S(=O)(=O)c1cn(C)cn1,-15.1,0.265,-6.5,x
Cc1cc2c(c(=O)n1CCN(C)C)C(c1ccncc1)C(C#N)=C(N)O2 (stereo not given),-4.9,0.144,-0.3,-0.9
Cc1ccc(S(=O)(=O)N(C)C[C@@H]2Oc3c(cccc3N(C)C)C(=O)N([C@@H](C)CO)C[C@H]2C)cc1,2.4,-0.222,8.6,-0.4
Cc1cc(SCC(=O)Nc2cccc(Br)c2)nc2c(C)cccc12,16.8,x,x,-0.1
COc1ccc(S(=O)(=O)Nc2cccc3c2O[C@@H](CN(C)S(=O)(=O)c2ccccc2)[C@@H](C)CN([C@H](C)CO)C3=O)cc1,6.7,-0.051,11.9,0.0
C[C@H](CO)N1C[C@H](C)[C@@H](CN(C)CC2CC2)Oc2c(NS(=O)(=O)c3ccccc3)cccc2C1=O,0.5,-0.353,-13.6,2.7
CCCc1cc(=O)oc2cc(OCc3cc(C(=O)O)oc3C)ccc12,-19.3,x,x,-1.1
C[C@H](CO)N1C[C@H](C)[C@H](CN(C)C(=O)NC2CCCCC2)Oc2ccc(NC(=O)CCN3CCOCC3)cc2C1=O,-5.9,-0.326,x,1.3
COc1ccc(NC(=O)N(C)C[C@H]2Oc3ccc(NC(=O)Nc4ccccc4)cc3CC(=O)N([C@@H](C)CO)C[C@@H]2C)cc1,-5.0,0.0725,-4.8,0.2
CC(C)N(Cc1nc(-c2ccc(Cl)cc2)no1)S(=O)(=O)c1cccc([N+](=O)[O-])c1,11.6,x,x,0.3
Cc1ccc(S(=O)(=O)Nc2cccc3c2O[C@@H](CN(C)C(=O)Nc2ccccc2)[C@H](C)CN([C@H](C)CO)C3=O)cc1,2.3,0.407,-25.8,3.6
COc1ccc(NC(=O)N(C)C[C@@H]2Oc3c(NC(=O)Nc4cccc5ccccc45)cccc3C(=O)N([C@@H](C)CO)C[C@H]2C)cc1,16.0,0.305,3.1,-3.8
O=C(CSc1nnnn1-c1ccccc1)Nc1ccc(Cl)c(C(=O)O)c1,-10.8,x,x,2.4
CCOC(=O)c1ccccc1NC(=O)COc1ccccc1Br,-28.0,x,x,-0.2
Cc1nn2c3ccccc3n(C)c2c1C(=O)CN1CCOCC1,-69.1,x,x,-2.6
O=C(Cn1nc(-c2cccc([N+](=O)[O-])c2)c2ccccc2c1=O)Nc1cccc(Cl)c1,13.4,x,x,-1.5
COc1ccc(CN(C)C[C@@H]2Oc3ccc(NS(=O)(=O)c4ccc(OC)cc4)cc3CC(=O)N([C@H](C)CO)C[C@H]2C)cc1,4.5,-0.0113,2.8,-1.8
C[C@@H]1CN([C@@H](C)CO)C(=O)c2cccc(NS(=O)(=O)c3ccc(F)cc3)c2O[C@H]1CN(C)C(=O)Nc1ccc(C(F)(F)F)cc1,1.9,0.148,6.9,0.2
C[C@H](CO)N1C[C@H](C)[C@H](CN(C)Cc2ccc(C(=O)Nc3ccccc3N)cc2)Oc2ccc(N(C)C)cc2CC1=O,36.7,-0.207,x,-1.8
COc1ccc(NC(=O)N(C)C[C@@H]2Oc3ccc(NC(=O)Nc4cccc5ccccc45)cc3CC(=O)N([C@H](C)CO)C[C@@H]2C)cc1,-11.1,-0.0416,-18.8,-0.1
C[C@@H]1CCCCO[C@H](CN(C)Cc2ccc3c(c2)OCO3)[C@@H](C)CN([C@H](C)CO)C(=O)c2cc(NC(=O)Nc3cccc4ccccc34)ccc2O1,-19.9,0.0509,30.5,x
Cn1nc(CC(=O)Nc2ccc(OC(=O)c3ccccc3)cc2)c2ccccc2c1=O,19.6,x,x,-8.8
C=C1CCC(C)C(C)(CCC2=CC(=O)OC2O)C/C=C\C=C/1C(=O)O (stereo not given),-4.5,0.129,-18.5,0.4
COc1ccc(S(=O)(=O)N(C)C[C@@H]2Oc3ccc(NC(=O)NC(C)C)cc3CC(=O)N([C@H](C)CO)C[C@@H]2C)cc1,8.5,-0.103,-2.5,x
CC1CCCC(C)N1NC(=O)c1ccc(Cl)c(S(N)(=O)=O)c1 (stereo not given),-30.2,-0.0437,42.5,x
O=C(CCN1C(=O)c2ccccc2C1=O)Nc1ccc2c(c1)OCCO2,-77.8,x,x,3.0
C[C@@H]1CN([C@H](C)CO)C(=O)c2cc(NC(=O)c3ccncc3)ccc2O[C@@H]1CN(C)C(=O)Nc1ccc(F)cc1,-7.2,0.0342,-49.2,x
O=C(Cn1cnc2ccccc2c1=O)Nc1cc(Cl)c(Cl)cc1Cl,6.4,x,x,2.8
C=C(C(=O)O[C@H]1C[C@]2(C)C(C(C=O)CC[C@H]2O)[C@H]2OC(=O)C(=C)[C@H]12)C(O)CO (stereo not given in full),-14.1,-0.108,-8.2,-12.1
C[C@@H]1CN([C@@H](C)CO)C(=O)c2cc(NC(=O)Nc3ccccc3)ccc2O[C@@H]1CN(C)S(=O)(=O)c1ccccc1,-14.9,0.575,-22.7,0.7
C[C@H]1CN([C@@H](C)CO)C(=O)c2cc(NC(=O)CCCN(C)C)ccc2O[C@@H]1CN(C)Cc1ccc2c(c1)OCO2,-11.4,-0.2,16.2,1.7
C[C@@H]1CN([C@@H](C)CO)C(=O)c2cc(NC(=O)C3CCCCC3)ccc2O[C@H]1CN(C)C(=O)Nc1cccc2ccccc12,-1.8,5.59*,x,0.6
CC1CCCCN1S(=O)(=O)c1ccc(N)cc1 (stereo not given),7.8,0.22,-21.7,-0.5
C=C[C@@]1(C)C[C@@]2(OC[C@@]3(C)O[C@@H]23)Oc2c1c(=O)oc1cccc(C)c21,4.4,0.0203,14.9,-1.1

# The closing 3 records of the part above lead into the next:
SMILES,MITF inhib,YB-1 expr inh,Shh pathway inh,PD-1 reverse act
C[C@@H]1CN([C@@H](C)CO)C(=O)c2cc(NC(=O)C3CCCCC3)ccc2O[C@H]1CN(C)C(=O)Nc1cccc2ccccc12,-1.8,5.59*,x,0.6
CC1CCCCN1S(=O)(=O)c1ccc(N)cc1 (stereo not given),7.8,0.22,-21.7,-0.5
C=C[C@@]1(C)C[C@@]2(OC[C@@]3(C)O[C@@H]23)Oc2c1c(=O)oc1cccc(C)c21,4.4,0.0203,14.9,-1.1
C[C@@H]1CN([C@H](C)CO)C(=O)c2cccc(NC(=O)c3nc4ccccc4s3)c2O[C@@H]1CN(C)CC1CC1,-28.5,0.126,23.0,-2.8
C[C@H](CO)N1C[C@H](C)[C@H](CN(C)S(=O)(=O)c2ccc(Cl)cc2)Oc2ccc(NC(=O)C3CC3)cc2C1=O,-3.0,-0.268,15.4,-1.1
c1ccc2c(c1)CCCC2C1=NCCN1 (stereo not given),-28.8,-0.632,-14.3,x
COc1ccc(NC(=O)N(C)C[C@H]2Oc3c(NS(=O)(=O)c4cccs4)cccc3C(=O)N([C@@H](C)CO)C[C@@H]2C)cc1,-16.9,-0.387,-48.2,x
CC(C)NC(=O)N(C)C[C@@H]1OCCCC[C@@H](C)Oc2ccc(NC(=O)CCC(F)(F)F)cc2C(=O)N([C@H](C)CO)C[C@@H]1C,0.4,0.109,6.5,-0.3
NC(N)=NCc1cccc(I)c1,0.9,0.175,-43.7,x
Cc1ccc(S(=O)(=O)Nc2ccc3c(c2)C(=O)N([C@@H](C)CO)C[C@@H](C)[C@@H](CN(C)Cc2ccc(C(=O)O)cc2)O3)cc1,5.2,0.173,x,1.1
Cc1noc(C)c1NC(=O)Nc1ccc2c(c1)CC(=O)N([C@H](C)CO)C[C@@H](C)[C@H](CN(C)Cc1ccncc1)O2,-4.2,0.0566,-15.9,1.7
C[C@@H]1CN([C@H](C)CO)C(=O)c2cc(NC(=O)Cc3cn(C)c4ccccc34)ccc2O[C@H]1CN(C)Cc1ccncc1,5.8,-0.148,x,4.8
CNC[C@H]1Oc2ccc(NC(=O)Nc3ccccc3)cc2C(=O)N([C@H](C)CO)C[C@H]1C,2.1,0.0747,x,1.1
COc1ccc(OC)c(C(=O)c2ccc(C(=O)NCc3nc(-c4ccccc4)cs3)cc2)c1,-0.8,x,x,1.5
N#Cc1ccc(C#N)c(-c2ccccc2)c1,5.7,0.317,-7.9,-0.3
CC1(C)C=Cc2c(cc3occ(-c4ccc5c(c4)OCO5)c(=O)c3c2O)O1,-20.0,0.0254,55.9,x
COC(=O)c1ccccc1NC(=O)CSc1nnc(-c2cccnc2)n1-c1ccccc1,-13.7,x,x,1.9
C[C@H]1CN([C@@H](C)CO)C(=O)Cc2cc(NS(=O)(=O)c3cn(C)cn3)ccc2O[C@H]1CN(C)Cc1ccccc1,8.8,0.318,-1.9,1.8
CC(C)NC(=O)N(C)C[C@H]1Oc2c(NS(=O)(=O)c3ccc(F)cc3)cccc2C(=O)N([C@@H](C)CO)C[C@@H]1C,-2.4,0.101,-0.2,2.2
C[C@@H]1CN([C@@H](C)CO)C(=O)Cc2cc(NS(=O)(=O)c3ccccc3)ccc2O[C@@H]1CN(C)C,2.4,0.0962,-9.6,0.7
C[C@@H]1CN([C@H](C)CO)C(=O)Cc2cc(NC(=O)C3CC3)ccc2O[C@H]1CN(C)C(=O)NC1CCCCC1,10.9,0.0576,17.4,x
C[C@@H]1CN([C@@H](C)CO)C(=O)c2cc(NC(=O)Nc3ccc4c(c3)OCO4)ccc2O[C@@H]1CN(C)Cc1ccc(-c2ccccc2)cc1,3.8,-0.0728,x,-0.4
COc1ccc(CN(C)C[C@H]2Oc3c(NC(=O)Nc4ccc(OC)cc4)cccc3C(=O)N([C@H](C)CO)C[C@H]2C)cc1,-27.0,-0.239,-6.8,-0.8

# Two compounds from above, reduced to YB-1 expr inh and Shh pathway inh.
smiles,YB-1 expr inh,Shh pathway inh
CC1(C)C=Cc2c(cc3occ(-c4ccc5c(c4)OCO5)c(=O)c3c2O)O1,0.0254,55.9
N#Cc1ccc(C#N)c(-c2ccccc2)c1,0.317,-7.9

# (more compounds)
SMILES,MITF inhib,YB-1 expr inh,Shh pathway inh,PD-1 reverse act
COc1ccc(-n2c(SCCCN3C(=O)c4cccc5cccc(c45)C3=O)nnc2-c2ccncc2)cc1,13.3,x,x,-2.1
Cc1ccc(S(=O)(=O)Nc2ccc3c(c2)C(=O)N([C@@H](C)CO)C[C@H](C)[C@H](CN(C)CC2CCCCC2)O3)cc1,0.9,-0.522,22.6,2.3
C[C@@H]1CN([C@@H](C)CO)C(=O)c2cccc(NC(=O)Nc3ccc(F)cc3)c2O[C@H]1CN(C)CC1CCCCC1,19.9,0.142,-8.7,-1.9
COc1ccc(NC(=O)N(C)C[C@@H]2Oc3ccc(NC(=O)Cc4ccccc4)cc3CC(=O)N([C@@H](C)CO)C[C@@H]2C)cc1,-1.8,-0.0266,-18.6,-0.5
O=C(COc1ccc(Cl)cc1Cl)Nc1ccc2oc(-c3ccncc3)nc2c1,-30.2,x,x,3.0
CCC(C)C(O)C(C)(O)/C=C/C1=CC2=C(Cl)C(=O)C(C)(O)C(O)C2CO1 (stereo not given),-16.1,0.0087,5.8,1.5
C[C@@H]1CN([C@@H](C)CO)C(=O)c2cc(NC(=O)c3ccncc3)ccc2O[C@H]1CN(C)S(=O)(=O)c1cccs1,-3.5,-0.0982,37.2,-0.4
CC(C)NC(=O)N(C)C[C@H]1Oc2c(NC(=O)Nc3ccc4c(c3)OCO4)cccc2C(=O)N([C@H](C)CO)C[C@@H]1C,-15.2,-0.0664,-20.0,x
C[C@@H]1CCCCO[C@@H](CN(C)C(=O)CCCN(C)C)[C@@H](C)CN([C@H](C)CO)C(=O)c2cc(NS(=O)(=O)c3cccs3)ccc2O1,3.1,-0.293,18.4,1.5
C/C(=C/CCC(CO)C1CCC2(C)C3CCC4C(C)(C)C(OC5OC(CO)C(O)C(O)C5O)CCC45CC35CCC12C)COC1OC(COC2OC(CO)C(O)C(O)C2O)C(O)C(O)C1O (stereo not given),-3.8,5.8*,-12.2,-0.1
COc1ccc(NC(=O)CNS(=O)(=O)c2ccc(C)cc2)cc1Cl,-6.1,x,x,-0.1
Cc1c(C#N)c(Sc2cccc(C(F)(F)F)c2)nc2ccccc12,-4.6,0.0667,-5.1,-0.9
C[C@@H]1CN([C@@H](C)CO)C(=O)c2cc(NS(=O)(=O)c3ccccc3)ccc2O[C@H]1CN(C)S(=O)(=O)c1ccccc1,-8.9,-0.456,6.5,-1.6
